rRNA inh HTS = selective bacterial rRNA inhibition in E. coli. E. coli WT GFP vs humanized-ribosome RFP mutants, fluorescence, 24 h; active compounds read low; DMSO median 0, no signal -100. GFP signal change (wild-type ribosome), % (test concentration not listed). actives 1.6% (n = 350,000). AID 720706;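 active = significant combined selectivity score with lowered wild-type GFP, culture density cut under 30%, mutant RFP and density less affected; inactive = any of these conditions unmet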; also: one replicate is shown; some compounds called inactive have numbers as strong as hits
rRNA inh HTS OD600 = recorded beside rRNA inh HTS, whose call it bears; OD600 change, %; measured here: OD600 growth;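 optical density of the mix in the first replicate; 0 = DMSO median and -100 = no signal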
rRNA inh HTS RFP = recorded beside rRNA inh HTS, whose call it bears; RFP signal change, %; measured here: RFP humanized mutant strains;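 first replicate; 0 = DMSO median and -100 = no signal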
Numbers without * were called inactive; & = joins results of further samples. This is a subset, so the mix of outcomes need not match the whole.

SMILES	rRNA inh HTS	rRNA inh HTS OD600	rRNA inh HTS RFP
O=C(C[C@@H]1C[C@@H]2c3cc(NC(=O)Cc4ccncc4)ccc3O[C@@H]2[C@@H](CO)O1)NCc1cccnc1	3.8	17.2	-1.3
O=C(NCCc1ccccc1)[C@@H]1N[C@@H]2c3ccc(-c4ccccc4)c(=O)n3C[C@@H]2[C@H]1CO	-0.8	-0.4	0.4
C[C@H](CO)N1C[C@H](C)[C@@H](CN(C)C)Oc2cc(C#CC3(O)CCCC3)ccc2S1(=O)=O	5.4	4.5	-1.0
COc1ccc(-c2cnc3c(c2)C(=O)N([C@H](C)CO)C[C@@H](C)[C@H](CN(C)C(=O)C2CCOCC2)O3)cc1	-3.1	-10.0	-2.4
CCCNC(=O)N(C)C[C@H]1Oc2ncc(C3=CCCC3)cc2C(=O)N([C@H](C)CO)C[C@@H]1C	1.3	12.4	-3.9
C[C@@H]1CN([C@H](C)CO)C(=O)Cc2cc(NC(=O)Nc3ccc(C(F)(F)F)cc3)ccc2O[C@@H]1CN(C)Cc1ccc(Oc2ccccc2)cc1	1.6	7.2	-0.7
CNC[C@@H]1OCc2ccccc2-c2c(n(C)c3ccccc23)C(=O)N([C@@H](C)CO)C[C@@H]1C	2.8&3.9	5.9&3.0	-1.7&4.7
C[C@@H]1CCCCO[C@@H](CN(C)C(=O)Nc2ccc3c(c2)OCO3)[C@@H](C)CN([C@H](C)CO)C(=O)c2cc(NC(=O)Nc3ccc(F)cc3)ccc2O1	2.4	3.6	-1.8
COc1ccc(S(=O)(=O)N(C)C[C@H]2OCCCC[C@@H](C)Oc3ccc(NS(=O)(=O)c4ccc(Cl)cc4)cc3C(=O)N([C@@H](C)CO)C[C@H]2C)cc1	2.7	6.3	-1.5
CC12CCC3C(CCC4CC(O)CCC43C)C1CC(=O)C2 (stereo unspecified)	-26.1	-38.0	6.1
CO[C@H]1CN(C)C(=O)c2ccc(NC(=O)C3CCOCC3)cc2OC[C@@H](C)N(Cc2nccs2)C[C@H]1C	1.3	5.7	-2.5
COc1cccc(-c2ccc3c(c2)[C@@H]2[C@@H](CCN2S(=O)(=O)c2ccccc2F)[C@H](CO)N3C)c1	1.4	3.5	-2.1
O=C(CC1CC1)Nc1ccc2c(c1)[C@@H]1C[C@H](CC(=O)N3CCOCC3)O[C@H](CO)[C@@H]1O2	5.7	-2.1	-1.1
CC1CCCCN1CCNC(=O)c1ccc2c(c1)N(Cc1cccc(Cl)c1)C(=O)c1ccccc1S2(=O)=O (stereo unspecified)	0.3	-9.9	2.5
C[C@H](CO)N1C[C@H](C)[C@H](CN(C)Cc2ccc(Cl)c(Cl)c2)Oc2ccc(NS(=O)(=O)c3ccc(Cl)cc3)cc2CC1=O	1.2	2.4	0.4
Cc1cc2c(cc1C)-n1nnnc1C(N1CCCNCC1)C(=O)N2 (stereo unspecified)	23.0	10.5	3.7
Cc1cccc(NC(=O)c2cc([N+](=O)[O-])ccc2N2CCOCC2)c1C	-13.1	-8.3	2.3
Cc1noc(C)c1NC(=O)N(C)C[C@H]1OCCCC[C@H](C)Oc2ccc(NS(=O)(=O)c3cn(C)cn3)cc2C(=O)N([C@@H](C)CO)C[C@H]1C	0.9	-2.0	-3.1
CO[C@@H](CN(C)Cc1cc(F)ccc1F)[C@H](C)CN([C@@H](C)CO)S(=O)(=O)c1ccc(F)cc1	1.7	12.6	-0.9
O=S(=O)(c1ccccc1F)N1[C@@H]2CNC[C@H]1C2c1ccc(-c2cccnc2)cc1 (stereo partly specified)	-1.6&-3.5	9.0&-2.8	-3.9&-1.0

Some of these compounds in order of their number in rRNA inh HTS OD600, smallest number first.
SMILES	rRNA inh HTS	rRNA inh HTS OD600	rRNA inh HTS RFP
CC1CCCCN1CCNC(=O)c1ccc2c(c1)N(Cc1cccc(Cl)c1)C(=O)c1ccccc1S2(=O)=O (stereo unspecified)	0.3	-9.9	2.5
O=C(NCCc1ccccc1)[C@@H]1N[C@@H]2c3ccc(-c4ccccc4)c(=O)n3C[C@@H]2[C@H]1CO	-0.8	-0.4	0.4
COc1ccc(S(=O)(=O)N(C)C[C@H]2OCCCC[C@@H](C)Oc3ccc(NS(=O)(=O)c4ccc(Cl)cc4)cc3C(=O)N([C@@H](C)CO)C[C@H]2C)cc1	2.7	6.3	-1.5

3 compounds already listed, sorted by SMILES length, largest number first:
SMILES	rRNA inh HTS	rRNA inh HTS OD600	rRNA inh HTS RFP
C[C@@H]1CCCCO[C@@H](CN(C)C(=O)Nc2ccc3c(c2)OCO3)[C@@H](C)CN([C@H](C)CO)C(=O)c2cc(NC(=O)Nc3ccc(F)cc3)ccc2O1	2.4	3.6	-1.8
C[C@H](CO)N1C[C@H](C)[C@@H](CN(C)C)Oc2cc(C#CC3(O)CCCC3)ccc2S1(=O)=O	5.4	4.5	-1.0
CC12CCC3C(CCC4CC(O)CCC43C)C1CC(=O)C2 (stereo unspecified)	-26.1	-38.0	6.1

(more compounds)
SMILES	rRNA inh HTS	rRNA inh HTS OD600	rRNA inh HTS RFP
COc1ccc(-c2cnc3c(c2)C(=O)N([C@H](C)CO)C[C@H](C)[C@H](CN(C)C(=O)Cc2ccccc2)O3)cc1	-3.2	-1.6	-2.1
CN(C)C(=O)C[C@@H]1CC[C@H]2[C@@H](COc3ccc(NC(=O)C4CCCC4)cc3C(=O)N2C)O1	1.1	11.3	-3.2
CC(C)NC(=O)N(C)C[C@H]1OCCCC[C@@H](C)Oc2ccc(NS(=O)(=O)c3ccccc3)cc2C(=O)N([C@H](C)CO)C[C@H]1C	-2.1	6.5	2.0
CNC(=O)C[C@@H]1CC[C@H]2[C@H](COc3ccc(NS(=O)(=O)c4ccc(F)cc4)cc3C(=O)N2C)O1	2.0	11.4	-1.9
Cc1cc(N(C)C)cc(C)c1N=Nc1cc[n+]([O-])cc1	-6.9	27.2	2.1
COc1ccc(N2CCN(C(=O)COC(=O)CC(NC(N)=O)c3ccc(Cl)cc3)CC2)cc1 (stereo unspecified)	-14.5	-17.2	-2.7
CO[C@@H]1CN(C)C(=O)c2cc(NS(=O)(=O)c3cn(C)cn3)ccc2OC[C@H](C)N(Cc2cccc(F)c2)C[C@@H]1C	1.4	-4.1	0.4
CO[C@@H]1CN(C)C(=O)c2cc(NC(=O)Nc3ccccc3)ccc2OC[C@H](C)N(C(=O)CC2CC2)C[C@H]1C	-1.0	-4.7	1.0
CCOC(=O)[C@]12CCC=C1N(Cc1ccc3c(c1)OCO3)C(=O)[C@H](CC(=O)NCCCN1CCCC1=O)C2	11.7	13.7	2.0
COC(=O)[C@]12C[C@H](CC(=O)NCc3ccc(C)o3)C(=O)N(CCC3=CCCCC3)C1=C[C@H](COCc1ccccc1)O[C@@H]2C	6.1	7.4	9.2
O=C(CSc1nc2ccccc2c(=O)n1-c1ccc(F)cc1F)NC1CC1	4.9	2.8	0.7
C[C@@H]1CN([C@H](C)CO)C(=O)c2ccccc2-c2ccccc2CO[C@H]1CN(C)C(=O)[C@H](C)c1ccccc1	0.5	-4.4	-1.1
COc1ccc(NC(=O)N[C@H]2CC[C@@H](CCNS(=O)(=O)c3ccccc3F)O[C@H]2CO)cc1	-5.7	-5.0	-5.0
C[C@H](CO)N1C[C@H](C)[C@H](CN(C)S(=O)(=O)c2ccc(Cl)cc2)OCCCC[C@H](C)Oc2ccc(NS(=O)(=O)c3cccs3)cc2C1=O	-0.8	0.2	-1.0
C[C@@H](NC(=O)[C@@H]1[C@@H](CO)[C@@H]2Cn3c(cccc3=O)[C@H]1N2C(=O)C1CCCC1)c1ccccc1	2.3	12.1	-1.9
C[C@@H]1CN([C@H](C)CO)C(=O)c2cc(NC(=O)Nc3ccc4c(c3)OCO4)ccc2O[C@@H](C)CCCCO[C@@H]1CN(C)C(=O)Cc1ccccc1	-1.2	-0.2	-1.0
CO[C@H]1CN(C)C(=O)c2cc(NS(=O)(=O)c3cn(C)cn3)ccc2OC[C@@H](C)N(C)C[C@H]1C	1.6	5.1	-0.2
COC(=O)[C@@]1(Cc2ccc(F)cc2)[C@H]2c3cc(C(=O)N(C)C)n(Cc4cc(C)n(C)n4)c3C[C@H]2CN1C(=O)c1ccccc1	15.1	8.0	4.9
C[C@H](CO)N1C[C@H](C)[C@@H](CN(C)C(=O)c2cccc(F)c2)Oc2ncc(-c3ccncc3)cc2C1=O	1.6	4.4	-4.9
C[C@H](CO)N1C[C@H](C)[C@H](CN(C)Cc2ccc(-c3ccccc3)cc2)Oc2ccc(NC(=O)Nc3ccc(F)cc3)cc2C1=O	2.0	-1.2	4.9
Cc1noc(C)c1S(=O)(=O)N(C)C[C@H]1OCCCC[C@@H](C)Oc2ccc(NC(=O)c3ccccc3)cc2C(=O)N([C@@H](C)CO)C[C@@H]1C	-2.1	-5.5	2.4
C[C@@H]1CN([C@@H](C)CO)C(=O)c2cccc(NC(=O)NC3CCCCC3)c2O[C@H]1CN(C)C(=O)Nc1ccc(F)cc1	-0.3	3.6	-3.2
CO[C@H](CN(C)C(=O)c1cnccn1)[C@H](C)CN([C@@H](C)CO)S(=O)(=O)c1ccc(C)cc1	1.1	5.5	-5.2
COc1ccc(-c2cnc3c(c2)C(=O)N([C@H](C)CO)C[C@@H](C)[C@H](CN(C)C(=O)C2CCCCC2)O3)cc1	-3.6	2.8	-0.2
O=C1CN(Cc2ccc(F)cc2)C[C@H]2[C@@H](c3ccc(-c4cccnc4)cc3)[C@H](CO)N12	1.2	6.4	-3.2
O=S1(=O)C[C@@H](N2CCCC2)[C@H](COCc2ccccc2)N1	22.3	12.6	3.1
C[C@@H]1CN([C@H](C)CO)S(=O)(=O)c2ccc(C#CCN(C)C)cc2O[C@H]1CN(C)C(=O)c1ccccc1F	-2.9	-5.1	-3.4
COC(=O)N(C)C[C@@H]1OCc2ccccc2-c2c(n(C)c3ccccc23)C(=O)N([C@H](C)CO)C[C@@H]1C	10.1&-1.9	5.1&-1.1	4.1&-4.6
CN(C)CC(=O)Nc1ccc2c(c1)[C@H]1C[C@H](CC(=O)NC3CCCC3)O[C@@H](CO)[C@H]1O2	2.2	10.0	-0.6
CCNC(=O)C[C@@H]1CC[C@H]2[C@@H](COc3ccc(NC(=O)Nc4cccc(OC)c4)cc3C(=O)N2C)O1	-2.9	-3.2	0.5
CO[C@@H]1CC[C@@H]2CCN(C)C(=O)[C@H](C)[C@H](OC)CN(C)C(=O)c3cccc(C#N)c3OC[C@H]1O2	0.1	-1.7	-0.4
C#CCNC(=O)C[C@@H]1C[C@@]2(C(=O)OC)CC(C)(C)CC=C2N(CCCCCCCC)C1=O	-10.1	-10.1	-3.9
COC(=O)c1csc(C2OC(CO)C(O)C2O)n1 (stereo unspecified)	3.0	8.9	-1.1
Cc1ccccc1S(=O)(=O)Nc1ccc2c(c1)C(=O)N(C)[C@H]1CC[C@H](CC(=O)O)O[C@@H]1CO2	2.8	17.3	-2.9
COc1ccc(CN(C)C[C@H]2OCCCC[C@@H](C)Oc3ccc(NC(=O)Nc4ccc5c(c4)OCO5)cc3C(=O)N([C@@H](C)CO)C[C@H]2C)cc1	4.1	-10.1	6.0
OC[C@@H]1[C@H](c2ccc(C#CC3(O)CCCC3)cc2)[C@@H]2CN(Cc3cccnc3)CCCCN12	5.9	20.4	2.4
CO[C@@H](CN(C)S(=O)(=O)c1ccc(C)cc1)[C@@H](C)CN(Cc1ccccc1Cl)[C@H](C)CO	-32.0	-56.7	14.4
N#C[C@@H]1[C@H](c2ccc(C#CC3CCCC3)cc2)[C@@H](CO)N1C(=O)Nc1ccc(F)cc1	-27.5	-45.8	25.9
C[C@@H]1CN(C)C(=O)c2cc(N(C)C)ccc2O[C@@H]1CN(C)S(C)(=O)=O	0.1	-2.7	0.4
C[C@@H]1CN([C@@H](C)CO)C(=O)Cc2cc(NC(=O)C3CC3)ccc2O[C@@H]1CN(C)Cc1ccc(C(F)(F)F)cc1	1.5	-37.2	5.6
CNC[C@H]1Oc2ccc(N(C)C)cc2C(=O)N(C)C[C@H]1C	-1.2	6.0	-0.8
Cc1ccc(S(=O)(=O)N2C[C@H](O)COC[C@H]3O[C@@H](CC(=O)NCCN4CCCCC4)CC[C@@H]32)cc1	2.8	6.6	-5.6
COCC(=O)Nc1ccc2c(c1)OC[C@H](C)N(C(C)=O)C[C@H](C)[C@@H](OC)CN(C)C2=O	0.8	-0.1	0.4
O=C(Cc1ccccc1)N1CC[C@@H]2[C@@H](CO)Nc3ccc(-c4ccc(F)cc4)cc3[C@@H]21	-57.1	-74.5	-15.4
COc1ccc(S(=O)(=O)N(C)C[C@H]2OCCCC[C@@H](C)Oc3ccc(NC(=O)NC(C)C)cc3C(=O)N([C@H](C)CO)C[C@@H]2C)cc1	-0.7	-2.8	-2.6
CCC(=O)N1[C@@H](CO)[C@@H](c2ccccc2)C12CN(C(=O)Nc1ccccc1F)C2	-4.7	-8.1	1.3
O=C(N[C@@H]1CC[C@@H](CCn2cc(C3CCCCC3)nn2)O[C@H]1CO)c1cccnc1	-0.2	-2.7	-0.2
C[C@@H]1CN([C@@H](C)CO)C(=O)Cc2cc(NC(=O)C3CCCCC3)ccc2O[C@H]1CN(C)Cc1ccc(C(F)(F)F)cc1	-1.3	-7.7	4.2
C[C@@H]1CN([C@@H](C)CO)C(=O)Cc2cc(NC(=O)NC3CCCCC3)ccc2O[C@@H]1CN(C)C(=O)NC1CCCCC1	3.0	6.4	0.2
CC(=O)NCCNc1nc(NCC2CC2)nc2cc(-c3ccccc3)sc12	-11.3	-31.6	-8.6
CO[C@@H]1CN(C)C(=O)c2cc(NC(=O)c3cc(C)on3)ccc2OC[C@H](C)N(CC2CC2)C[C@H]1C	3.1	3.4	0.3

Record cards (already shown). Order of screens: rRNA inh HTS	rRNA inh HTS OD600	rRNA inh HTS RFP
`CCC(=O)N1[C@@H](CO)[C@@H](c2ccccc2)C12CN(C(=O)Nc1ccccc1F)C2` across the screens: -4.7	-8.1	1.3
`O=C(Cc1ccccc1)N1CC[C@@H]2[C@@H](CO)Nc3ccc(-c4ccc(F)cc4)cc3[C@@H]21` across the screens: -57.1	-74.5	-15.4
`Cc1ccc(S(=O)(=O)N2C[C@H](O)COC[C@H]3O[C@@H](CC(=O)NCCN4CCCCC4)CC[C@@H]32)cc1` across the screens: 2.8	6.6	-5.6
